Assay outcomes deposited in PubChem BioAssay by National Center for Advancing Translational Sciences (NCATS).
D2 potentiator – positive allosteric modulators of human D2 dopamine receptor | potentiation, % (test concentration not listed) | AID 624464 | DiscoveRx D2 beta-arrestin cells, luminescence, 90 min; 100% = 57 uM dopamine signal | 0.23% of 360,000 active; active = potentiation of 50% or more; inconclusive = 30% to 50%; inactive = 30% or less;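 note: compound concentration not given in the record; tested on top of an EC20 dose of dopamine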
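D2 cells co-treated with compound plus 50 nM dopamine (EC20) for 90 min at 37 deg C to detect potentiation. Beta-arrestin recruitment was read as enzyme-fragment luminescence after 1 h at ambient temperature. Full response was set by 57 uM dopamine.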
D2 agonist – agonists of human D2 dopamine receptor (beta-arrestin); DiscoveRx PathHunter D2 beta-arrestin, luminescence, 90 min; 100% = 57 uM dopamine signal; 0.084% of 360,000 active; activation, % (test concentration not listed); in the data active = activation above about 40%; inconclusive = about 15% to 40%; inactive = below about 15%; note: compound concentration not given in the record; the text of the record calls up to 30% inactive
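Agonist mode: compounds alone added to overnight-plated D2 PathHunter cells for 90 min at 37 C, with 57 uM final dopamine (EC100) defining full response. Beta-arrestin recruitment detected by chemiluminescent reagent, read after 1 h at ambient temperature.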
Six1-Eya2 inh – Six1/Eya2 interaction inhibition | Q15475+O00167 | AlphaScreen GST-Six1/His-Eya2 binding, biochemical; active compounds read low; control for the full effect not named in the record | activity change, % (test concentration not listed) | 0.56% of 360,000 active | AID 651725; in the data active = activity change below about -65%; inconclusive = about -30% to -65%; inactive = above about -30%; note: % is set by controls: 0 for no effect and ±100 for the full control effect
Target sequence (O00167 whole entry, looked up): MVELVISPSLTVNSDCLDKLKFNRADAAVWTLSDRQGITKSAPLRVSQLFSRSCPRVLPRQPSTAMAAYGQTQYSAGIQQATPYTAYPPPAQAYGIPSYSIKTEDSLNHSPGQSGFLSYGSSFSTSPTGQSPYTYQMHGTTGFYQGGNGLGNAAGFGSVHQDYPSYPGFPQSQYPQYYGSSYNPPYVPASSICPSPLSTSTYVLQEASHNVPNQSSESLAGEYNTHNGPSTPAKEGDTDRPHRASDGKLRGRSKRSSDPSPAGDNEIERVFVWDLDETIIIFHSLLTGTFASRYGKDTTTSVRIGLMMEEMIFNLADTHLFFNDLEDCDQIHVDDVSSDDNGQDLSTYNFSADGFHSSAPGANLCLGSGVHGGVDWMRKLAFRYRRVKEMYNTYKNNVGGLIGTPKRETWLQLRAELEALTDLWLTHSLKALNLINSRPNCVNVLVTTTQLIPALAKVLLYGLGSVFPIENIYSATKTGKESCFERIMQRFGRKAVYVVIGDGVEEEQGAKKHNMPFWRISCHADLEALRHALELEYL
Target sequence (Q15475 whole entry, looked up): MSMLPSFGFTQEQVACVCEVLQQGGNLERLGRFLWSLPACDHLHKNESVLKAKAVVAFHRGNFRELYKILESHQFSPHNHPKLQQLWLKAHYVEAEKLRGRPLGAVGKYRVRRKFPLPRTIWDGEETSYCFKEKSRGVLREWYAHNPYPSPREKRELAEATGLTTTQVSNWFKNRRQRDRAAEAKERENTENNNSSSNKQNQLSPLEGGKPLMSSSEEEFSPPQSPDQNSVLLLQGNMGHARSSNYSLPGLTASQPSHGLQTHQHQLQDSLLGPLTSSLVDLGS
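Compounds are tested against tagged Six1 and Eya2 proteins bridged by glutathione donor and nickel acceptor beads; after a one-hour incubation at 37 °C without light, AlphaScreen emission is recorded.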
gsp agonist – activates gsp, the McCune-Albright syndrome mutation; gsp mutant cells, cAMP HTRF, 30 min; control for the full effect not named in the record; Potency, µM (series often up to 76.9 µM), inactives show at the top dose activation (cAMP increase), actives largely listed as activators; 0.13% of 340,000 active; active = well fitted activation curve with a large enough effect; inconclusive = small, poorly fitted or top-dose-only effect, or another doubt; inactive = no such curve, though single readings can be large or run the other way; cell line not stated here;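 note: phosphodiesterase inhibitor Ro 20-1724 added with compounds to block cAMP breakdown; potency is the fitted concentration of half-maximal effect; nearly all actives have a fitted effect of over 60% in size; about a fifth of the inactives were tested at one dose only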
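Cells in DMEM/10% FBS with G418 were pretreated with compounds in DMSO plus […] (300 uM stock) for 30 min at 37C. cAMP was measured by HTRF (cAMP-d2 plus anti-cAMP antibody-K) after 30 min at room temperature.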
gsp antag – antagonists of gsp mutant (McCune-Albright syndrome) | gsp-mutant cells, cAMP HTRF, 30 min; control for the full effect not named in the record | Potency, µM (series often up to 76.9 µM), without a hit: at the top dose activity change, negative = inhibition, actives largely listed as inhibitors | 0.4% of 340,000 active; active = falling curve of any shape with a large fitted effect; inconclusive = falling curve, mostly with a smaller effect; inactive = flat or rising curve; cell line not stated here;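 note: intracellular cAMP measured with PDE inhibitor Ro 20-1724 present during compound exposure; potency is the fitted concentration of half-maximal effect; % is set by controls: 0 for no effect and ±100 for the full control effect; nearly all actives have a fitted effect of over 65% in size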
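HTRF cAMP measurement after 30 min RT detection following 30 min, 37C compound treatment alongside […] (added as 300 uM solution) in G418-selected cells seeded at 2000/well and grown 16–24 h.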
CtBP-E1A blk – blocks the CtBP interaction with E1A. AlphaScreen GST-E1A/His-CtBP binding, 1536-well; active compounds read low; control for the full effect not named in the record. 0.49% of 340,000 active. activity change, % (test concentration not listed); in the data active means activity change below about -65%; inconclusive means about -30% to -65%; inactive means above about -30%; note: % is set by controls: 0 for no effect and ±100 for the full control effect
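AlphaScreen with 125 nM GST-E1A and 125 nM His-CtBP (5X stocks) in Tris pH 8.0, 300 mM NaCl, BSA, Tween 20, TCEP. Compounds preincubated 2 h at 37 deg C, then glutathione donor/nickel acceptor beads added for 1 h at 37 deg C in dark.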
* marks the source's active call; other numbers are inactive results; [ ] = remark or other dose.

The opening four entries, to show the layout:
For Cc1cc([N+](=O)[O-])nn1CC(=O)NC1CCCCC1 the results were D2 potentiator -1, D2 agonist 7.6, Six1-Eya2 inh -2, gsp agonist -18%, gsp antag -3% and CtBP-E1A blk 9.
`Cc1cc(=O)oc2cc3c(cc12)OCO3` gave D2 potentiator -2, D2 agonist -2.9, Six1-Eya2 inh -2, gsp agonist -10% and gsp antag 3%.
`CCOC(=O)c1cnc(SC)nc1Oc1cccc(NS(=O)(=O)c2ccc(C)cc2)c1` gave D2 potentiator 2, D2 agonist 7.8, Six1-Eya2 inh 5, gsp agonist -11%, gsp antag -5% and CtBP-E1A blk 3.
`CCOC(=O)c1cnn2c(SC)ncnc12` gave D2 potentiator 1, D2 agonist -1.6, Six1-Eya2 inh -3, gsp agonist 1% and CtBP-E1A blk 3.

The list itself, previewed entries included:
For Cc1cc([N+](=O)[O-])nn1CC(=O)NC1CCCCC1 the results were D2 potentiator -1, D2 agonist 7.6, Six1-Eya2 inh -2, gsp agonist -18%, gsp antag -3% and CtBP-E1A blk 9.
`Cc1cc(=O)oc2cc3c(cc12)OCO3` gave D2 potentiator -2, D2 agonist -2.9, Six1-Eya2 inh -2, gsp agonist -10% and gsp antag 3%.
`CCOC(=O)c1cnc(SC)nc1Oc1cccc(NS(=O)(=O)c2ccc(C)cc2)c1` gave D2 potentiator 2, D2 agonist 7.8, Six1-Eya2 inh 5, gsp agonist -11%, gsp antag -5% and CtBP-E1A blk 3.
`CCOC(=O)c1cnn2c(SC)ncnc12` gave D2 potentiator 1, D2 agonist -1.6, Six1-Eya2 inh -3, gsp agonist 1% and CtBP-E1A blk 3.
Cc1ccc(NC(=S)Nc2ccc3cn[nH]c3c2)c(C)c1 was read as D2 potentiator -3, D2 agonist -3.8, Six1-Eya2 inh -8, gsp agonist 0%[15.4 µM], gsp antag 0% and CtBP-E1A blk 1.
Screening CC(=O)c1cc(NC(=O)c2cccc(C(F)(F)F)c2)c(=O)oc1/C=C/N(C)C returned D2 potentiator -8, D2 agonist -1.2, Six1-Eya2 inh -3, gsp agonist -4%, gsp antag 6% and CtBP-E1A blk 5.
Screening CC1CCCN(C(=O)COC(=O)C2CCN(S(=O)(=O)c3c(Cl)cccc3Cl)CC2)C1 (stereo not drawn) returned D2 potentiator -12, D2 agonist -0.6, Six1-Eya2 inh 8, gsp agonist -51%[inhibitor], gsp antag 2% and CtBP-E1A blk -6.
`Cc1cc(NC(=O)Cc2ccccc2)no1` gave D2 potentiator 5, D2 agonist 1.7, Six1-Eya2 inh 5, gsp agonist 0%, gsp antag 4% and CtBP-E1A blk 6.
For Cc1cc2c(cc1C)NC1(C[C@H]3CCC(=O)N4CC[C@@H](C1)[C@@H]34)C(=NC(C)(C)CC(C)(C)C)N2 (stereo partly drawn) the results were D2 potentiator -24, D2 agonist 1.8, Six1-Eya2 inh -12, gsp antag 2% and CtBP-E1A blk -1.
For CCOC(=O)[C@@H]1[C@H]2COc3cc(OC)ccc3[C@H]2N2C(=O)N(c3cccc(Cl)c3)C(=O)[C@@]12C the results were D2 potentiator -6, D2 agonist -3.5, Six1-Eya2 inh -14, gsp antag -9% and CtBP-E1A blk -8.
`CC(O)CCC(=O)NNC(=S)Nc1ccccc1` (stereo not drawn) gave D2 potentiator -2, D2 agonist -1.8, Six1-Eya2 inh -3, gsp agonist 20%, gsp antag 3% and CtBP-E1A blk -3.
Screening NC(=O)c1ccc(OCc2ccccc2)nc1 returned D2 potentiator -1, D2 agonist -0.8, Six1-Eya2 inh 0, gsp agonist -3%[15.4 µM], gsp antag 5% and CtBP-E1A blk -19.
COc1cc(/C=N/NC(=O)CC2C(=O)NN=C2C)ccc1O (stereo not drawn) was read as D2 potentiator -6, D2 agonist -2.3, Six1-Eya2 inh -4, gsp agonist 15%, gsp antag 14% and CtBP-E1A blk 6.
Screening N#CCCCSc1nnnn1-c1cccc(Cl)c1 returned D2 potentiator 8, D2 agonist -2.7, Six1-Eya2 inh 5, gsp agonist -3%, gsp antag 11% and CtBP-E1A blk 8.
`Cc1cccc(Nc2nc(NCc3ccco3)nc(N)c2[N+](=O)[O-])c1` gave D2 potentiator 0, D2 agonist -1.6, Six1-Eya2 inh 16, gsp agonist 9%, gsp antag 6% and CtBP-E1A blk 0.
Screening O=C(CCCn1c(=O)[nH]c2cc(Cl)ccc2c1=O)NCCN1CCN(c2ccccc2)CC1 returned D2 potentiator -32, D2 agonist -0.4, Six1-Eya2 inh 0, gsp agonist 27%, gsp antag -3% and CtBP-E1A blk 2.
`O=C(O)c1nc2nc(Cl)c(Cl)nc2[nH]1` gave D2 potentiator -3, D2 agonist -8.7, Six1-Eya2 inh -1, gsp agonist inconclusive and gsp antag -7%.
CSc1nc2sc3c(c2c(=O)[nH]1)CCCC3 was read as D2 potentiator -8, D2 agonist 2.2, Six1-Eya2 inh 2, gsp agonist 28%, gsp antag -4% and CtBP-E1A blk -1.
`Cc1cc(NC(=O)CSc2ccc3nnc(-c4ccccc4)n3n2)no1` gave D2 potentiator -6, D2 agonist -0.9, Six1-Eya2 inh -18, gsp agonist inconclusive, gsp antag 5% and CtBP-E1A blk -17.
For O=C(/C=C/c1ccccc1)c1cc(Br)ccc(=O)c1O the results were D2 potentiator -14, D2 agonist -3.3, Six1-Eya2 inh -25, gsp agonist -76%[inhibitor], gsp antag -12% and CtBP-E1A blk -1.
For COc1ccc(NC(=O)/C(Cl)=C(/Cl)S(=O)Cc2ccccc2)cn1 (stereo not drawn) the results were D2 potentiator -57, D2 agonist -7.3, Six1-Eya2 inh inconclusive, gsp agonist -1%, gsp antag 6% and CtBP-E1A blk 0.
O=c1c(C(c2ccc(O)cc2)c2c(O)nc3n(c2=O)CCCS3)c(O)nc2n1CCCS2 was read as D2 potentiator -4, D2 agonist 1.6, Six1-Eya2 inh -3, gsp agonist 4%, gsp antag -13% and CtBP-E1A blk -2.
Screening O=C(NCc1cccnc1)C1CCCN1S(=O)(=O)c1ccc(Cl)cc1 (stereo not drawn) returned D2 potentiator -3, D2 agonist 0.4, Six1-Eya2 inh 19, gsp agonist -9%, gsp antag -35% and CtBP-E1A blk 3.
`O=C(Nc1cccnc1Cl)c1cc(-c2cccc(O)c2)on1` gave D2 potentiator -7, D2 agonist -0.6, Six1-Eya2 inh -30, gsp agonist 0%, gsp antag -3% and CtBP-E1A blk -12.
For CN(C(=O)COC(=O)CNC(=O)c1ccccc1F)C1CCCCC1 the results were D2 potentiator -11, D2 agonist -1.3, Six1-Eya2 inh 12, gsp agonist 7%, gsp antag -9% and CtBP-E1A blk 13.
`CC(=O)c1cccc(OCC(=O)N(C)CC(=O)Nc2ccc(F)cc2)c1` gave D2 potentiator -9, D2 agonist -1.0, Six1-Eya2 inh 3, gsp agonist 4%, gsp antag 4% and CtBP-E1A blk 1.
Screening Cc1ccc(S(=O)(=O)NCC(=O)OCC(=O)Nc2cccc(S(=O)(=O)NC3=NCCCCC3)c2)cc1 returned D2 potentiator -11, D2 agonist -3.1, Six1-Eya2 inh -8, gsp agonist 1%[15.4 µM], gsp antag -8% and CtBP-E1A blk -7.
For CN1CCN(c2ccc(NC(=O)c3ccco3)cc2Cl)CC1 the results were D2 potentiator -11, D2 agonist -2.3, Six1-Eya2 inh 8, gsp agonist 11%, gsp antag -1% and CtBP-E1A blk -4.
Screening C=CCN1C(=O)C2C(C(=O)NCc3ccccc3)C3(C)C=CC2(O3)C1C(=O)NC(C)(C)C (stereo not drawn) returned D2 potentiator -10, D2 agonist -3.1, Six1-Eya2 inh 3, gsp agonist -5%, gsp antag 6% and CtBP-E1A blk 3.
For O=C(COC(=O)c1ccccc1C(=O)c1ccc(Cl)cc1)NCC1CCCO1 (stereo not drawn) the results were D2 potentiator 0, D2 agonist -2.6, Six1-Eya2 inh -1, gsp agonist -9%[15.4 µM], gsp antag -6% and CtBP-E1A blk -6.
`Cc1ccc(N(Cc2ccccc2)C(=O)c2ccc(F)cc2)cc1` gave D2 potentiator -2, D2 agonist -2.4, Six1-Eya2 inh 1, gsp agonist -45%, gsp antag inconclusive and CtBP-E1A blk 11.
For C/C(=N\NC(=O)c1nnn(-c2nonc2N)c1CSc1ccc(C)cc1)c1cccs1 the results were D2 potentiator -14, D2 agonist -2.1, Six1-Eya2 inh 10, gsp agonist -41%[inhibitor] and CtBP-E1A blk -16.
Screening CCN1CCCC1CNC(=O)c1csc2c1CCCC2 (stereo not drawn) returned D2 potentiator -29, D2 agonist -1.6, Six1-Eya2 inh -13, gsp agonist -32%, gsp antag 0% and CtBP-E1A blk -6.
COc1ccccc1NC(=O)c1c(N=Cc2cccc([N+](=O)[O-])c2)cnn1C was read as D2 potentiator 1, D2 agonist -1.7, Six1-Eya2 inh -2, gsp agonist 17%[15.4 µM], gsp antag 4% and CtBP-E1A blk 0.
For Cc1onc(-c2ccccc2)c1C(=O)Nc1ccc(Cl)c(S(=O)(=O)N2CCOCC2)c1 the results were D2 potentiator -3, D2 agonist 4.9, Six1-Eya2 inh 3, gsp agonist 6%, gsp antag -1% and CtBP-E1A blk 2.
For N#Cc1cccc(C(=O)OCC(=O)c2ccc3c(c2)NC(=O)CO3)c1 the results were D2 potentiator -6, D2 agonist -0.3, Six1-Eya2 inh -8, gsp agonist 6%[15.4 µM], gsp antag -3% and CtBP-E1A blk -2.
Screening CCc1noc(C)c1C(=O)OCC(=O)N1CCc2ccccc21 returned D2 potentiator -5, D2 agonist -4.2, Six1-Eya2 inh 13, gsp agonist -3% and gsp antag 3%.
CN(C)C(/C=C/Nc1cccc(Br)c1)=C(C#N)C#N was read as D2 potentiator -1, D2 agonist 0.1, Six1-Eya2 inh -5, gsp agonist -11%, gsp antag 1% and CtBP-E1A blk 0.
Screening COC(=O)c1ccc(-c2nc(CN3CCC(C(=O)N4CCOCC4)CC3)c(C)o2)cc1 returned D2 potentiator 6, D2 agonist -3.0, Six1-Eya2 inh 2, gsp agonist -4%, gsp antag 16% and CtBP-E1A blk 12.
`CCC(=O)N1CCc2cc(Br)cc(S(=O)(=O)NCCCN(CC)Cc3ccccc3)c21` gave D2 potentiator -10, D2 agonist -1.8, Six1-Eya2 inh -13, gsp agonist -4%, gsp antag 0% and CtBP-E1A blk -15.
CCOC(=O)C1CCN(C(=O)C2CC(=O)N(c3ccc4c(c3)OCCO4)C2)CC1 (stereo not drawn) was read as D2 potentiator 0, D2 agonist -3.4, Six1-Eya2 inh 1, gsp agonist 20%, gsp antag 0% and CtBP-E1A blk 6.
COc1ccc(C(=O)N2CCCCC2c2cc(C(=O)Nc3ccccc3)no2)cc1 (stereo not drawn) was read as D2 potentiator -5, D2 agonist -2.5, Six1-Eya2 inh 0 and CtBP-E1A blk -3.
For Cc1ccc(C(=O)OCC(=O)Nc2ccc3c(c2)OCO3)cc1S(=O)(=O)N1CCOCC1 the results were D2 potentiator -6, D2 agonist -0.3, Six1-Eya2 inh -6, gsp agonist -22%, gsp antag -2% and CtBP-E1A blk -9.
